H5N1 antiviral = antiviral screen in MDCK cells, H5N1 avian flu; cytopathic effect, luminescence, 72 h; stronger effect = higher value; no value below 0 was filed and about half of the inactive calls have no number; reference of the scale not given here; inhibition, % at 50 µM; 0.07% of 96,000 active; in the data active means inhibition above about 25%
Numbers without * were called inactive; i = inactive.

Structure | H5N1 antiviral
Cc1ccc(OCc2nnc(NC(=O)OCC(C)C)s2)c(C)c1 | i
O=C(Nc1cccc2ccccc12)/C(Cl)=C/c1ccccc1 | 2.2
CC(OC(=O)Cn1c(C(F)(F)F)nc2ccccc21)C(N)=O (stereo not drawn) | i
CCC(C)n1cnc2c(c1=O)c1nc3ccccc3nc1n2-c1ccc2c(c1)OCCO2 (stereo not drawn) | i
Cc1cc(C2=CC(C)(c3cc(C)oc3C)Nc3nc(C(F)(F)F)nn32)c(C)o1 (stereo not drawn) | 4.0
CSc1nc2ccc(NC(=O)C3CC(=O)N(Cc4ccccc4)C3)cc2s1 (stereo not drawn) | i
CNS(=O)(=O)c1cccc(C(=O)OCC(=O)N2c3ccccc3CC2C)c1 (stereo not drawn) | i
COC(=O)c1cc2occc2n1CC(=O)N(C)C1CCCCC1 | 1.8
Cc1ccc(CS(=O)(=O)CCC(=O)NCCN2CCCC2)cc1 | 0.7
CC12CCC(C(N)=O)(c3nc4ccccc4nc31)C2(C)C (stereo not drawn) | 0.4
O=C(O)CCCNS(=O)(=O)c1cccc2nsnc12 | 0.6
O=C(CCc1ccccc1)NC(NC(=S)Nc1ccc(Br)cc1)C(Cl)(Cl)Cl (stereo not drawn) | i
CCOC(=O)C1CCN(C(=O)CNC(=O)OC(C)(C)C)CC1 | i
CCCOC(=O)/C(C(N)=NCc1ccccc1)=C(\O)OCCC | 0.7
O=C(N/N=C/c1cccc([N+](=O)[O-])c1)C1CC(=O)N(c2ccc(Cl)cc2)C1 (stereo not drawn) | 0.4
CCCN(CC1CC1)C(=O)Nc1ccccc1C | 0.3
CCn1c(=O)cc(OCC(=O)NC(C)c2ccc3c(c2)OCCO3)c2ccccc21 (stereo not drawn) | i
COC(=O)COc1cccc(NS(=O)(=O)c2ccc(NC(C)=O)cc2)c1 | 0.8
CC(C)c1ccccc1-n1c(SCC(=O)N2CCN(c3ccccc3)CC2)nnc1-c1cccnc1 | i
CC(C)C(=O)N=c1sc2cc(F)cc(F)c2n1C | i
CCOC(=O)C1=C(C)NC(=O)NC1c1cccnc1 (stereo not drawn) | 0.6
Cc1ccc(-c2nc(CSCC(=O)NCCN3CCN(Cc4ccccc4)CC3)c(C)o2)cc1 | i
Cc1ccoc1C(=O)Nc1ccc(CC(=O)O)cc1 | i
Cc1ccc(C)c(NC(=O)C2(C)CC3c4ccccc4C2c2ccccc23)c1 (stereo not drawn) | i
Cc1cc(NC(=O)c2cc(-c3ccccc3)on2)n(-c2ccccc2)n1 | 0.3
O=C(Oc1ccc2c(c1)OCO2)c1ccc(Br)c(S(=O)(=O)N2CCOCC2)c1 | 1.3
O=C(CC(c1ccccc1O)N1CCCCC1)N1CCCCC1 (stereo not drawn) | i
NCC12CC3CC(CC(O)(C3)C1)C2 | i
Nc1nnc(SCC(=O)c2ccc3ccccc3c2)s1 | 0.1
CCOc1ccc2[nH]c(=O)c(CN(CCOC)C(=O)N3CCOCC3)cc2c1 | i

3 entries drawn at random from those above:
Structure | H5N1 antiviral
CCOC(=O)C1=C(C)NC(=O)NC1c1cccnc1 (stereo not drawn) | 0.6
Nc1nnc(SCC(=O)c2ccc3ccccc3c2)s1 | 0.1
O=C(CC(c1ccccc1O)N1CCCCC1)N1CCCCC1 (stereo not drawn) | i

The list continues.
Structure | H5N1 antiviral
COc1ccc(S(=O)(=O)N2CCC(C(=O)N3CCc4ccccc4C3)CC2)cc1C | 2.6
COC(=O)c1ccc(S(=O)(=O)NCc2cccc(OC)c2)n1C | 0.2
COC(=O)CSc1nc2cc3c(cc2cc1C#N)OCO3 | 0.2
CC(C)(C)NC(=O)C(OC(=O)Cn1nnc(-c2ccc(F)cc2)n1)c1ccncc1 (stereo not drawn) | i
O=c1sc2ccccc2n1CCOc1ccccc1 | i
CCOC(=O)Cc1cc(=O)n2[nH]c(C)c(-c3ccccc3)c2n1 | 0.5
CC(=O)Nc1ccc(S(=O)(=O)N2CCCC2C(=O)O)cc1 (stereo not drawn) | 1.3
Cc1cc(=O)n2ncnc2n1COCCO | i
Cc1cccc(NC(=O)CSc2nnc(CCCCCNC(=O)OC(C)(C)C)o2)c1C | 0.4
O=C(NN=C1c2ccccc2-c2ccccc21)c1ccccn1 | 0.2
CC1CCCCC1NC(=O)c1cc2c(s1)CS(=O)(=O)C2 (stereo not drawn) | i
COC(=O)C(F)(F)Sc1c(C)[nH]c2ccccc12 | i
CC1CCCC(NC(=O)COC(=O)c2ccc3ccccc3n2)C1C (stereo not drawn) | 0.6
O=C(Cn1cnc2ccccc2c1=O)Nc1ccc2c(c1)OCCO2 | 4.2
COCCN(C(=O)Cc1cccs1)C(C(=O)NCc1ccc(OC)cc1)c1ccccc1 (stereo not drawn) | i
CCC(C)Sc1nc2ccccc2n1CC(=O)O (stereo not drawn) | 0.5
CCOC(=O)C(CCCOc1ccc(C)cc1)C(=O)OCC | 0.3
COc1oc(-c2ccccc2)nc1C(F)(F)F | i
Cc1nn(Cc2ccc(Cl)c(Cl)c2)c(C)c1NC(=O)c1cn(-c2ccccc2)nc1-c1ccccc1 | i
COc1ccc(C(=O)NCC(c2cccnc2)N2CCN(c3ccc(F)cc3)CC2)cc1OC (stereo not drawn) | 2.7
CS(=O)(=O)N(CC(=O)NC1CCCCC1)Cc1ccc(Cl)cc1 | 0.9
CCn1nnc(NC(=O)COc2ccc(C3CCCCC3)cc2)n1 | i
Cc1cccc(-c2nc(CN3CCCC(C(=O)NC4CCCC4)C3)c(C)o2)c1 (stereo not drawn) | i
O=C(NCc1ccc(Cl)cc1)c1cc(=O)nc2sc(-c3ccccc3)nn12 | 1.8
CCN1CCN(Cc2nc3c(c(=O)n(C)c(=O)n3C)n2C(C)C(C)=O)CC1 (stereo not drawn) | i
COc1ccccc1OCCCc1c(C)n[nH]c1C | i
COc1ccccc1Oc1cc(F)nc(N)n1 | 0.7
COc1ccc(C2NC(=O)NC(C)=C2C(=O)Nc2cc(C)ccc2C)cc1OC (stereo not drawn) | 0.1
COc1ccc(OC(C)C(=O)N2CCC(C)CC2)cc1 (stereo not drawn) | 0.5
O=C(c1cn[nH]c1)c1cc(F)ccc1O | i
COCCCNC(=O)c1c(N)n(-c2ccc3c(c2)OCO3)c2nc3ccccc3nc12 | i
CCCCNC(=O)c1cnc2n(c1=O)CCS2 | i
O=C(O)c1ccc(C(=O)O)c(C(=O)c2ccccc2)c1 | i
CC(=O)NCCn1c(SCc2ccc(C)cc2C)nc2ccccc2c1=O | 0.9
O=C(Cn1nnc(-c2ccccc2)n1)N1CCN(S(=O)(=O)c2ccc(Cl)cc2)CC1 | 2.7
Cc1ccc(S(=O)(=O)N(CC(=O)N2CCC(C(N)=O)CC2)c2cccc(C(F)(F)F)c2)cc1 | 0.4
Cc1ccc(NC(=O)CSc2nnc([C@@H](N)Cc3c[nH]c4ccccc34)o2)c(C)c1 | i
O=C(NC1(C(F)(F)F)C(=O)Nc2c1c(=O)[nH]c(=O)n2Cc1ccccc1)c1ccc(Cl)cc1Cl (stereo not drawn) | 0.0
N#CC1=C(N)C(C#N)(C#N)C2(C(=O)Nc3ccccc32)C2CCCC=C12 (stereo not drawn) | i
c1ccc(COc2ccc(OCCCNC3CCCC3)cc2)cc1 | i
CCc1nccn1S(=O)(=O)c1cc(Br)ccc1OC | i
O=C(NCc1cccnc1)C1c2ccccc2C(=O)N1C1CCCCCCC1 (stereo not drawn) | i
O=CN1Cc2[nH]c3ccccc3c2N(c2ccc(Cl)cc2)C1=O | i
COc1ccc(C(=O)N(Cc2ccco2)C(C(=O)NC2CCCC2)c2ccc(O)cc2)cc1OC (stereo not drawn) | i
COc1ccc(CN(CCCN2CCOCC2)C(=O)Nc2cccc(Cl)c2)cc1OC | i
O=C(Nc1ccc(NC(=O)C23CC4CC(CC(C4)C2)C3)cn1)c1ccco1 | 0.7
Cc1cc(NC(=O)CSc2nnc3c4c(C)c(C)sc4ncn23)no1 | 0.8
Cc1nn(Cc2ccc(Cl)cc2)c(C)c1NC(=O)C1CC=CCC1C(=O)O (stereo not drawn) | i
Cn1c(=O)c2c(nc(N3CCOCC3)n2C)n(C)c1=O | 0.6
CCCn1c(OC)nc2c1c(=O)n(C)c(=O)n2C | i
COC(=O)c1ccc(NC(=O)CN2CCN(S(=O)(=O)c3cc(Cl)ccc3OC)CC2)cc1 | i
O=c1[nH]cnc2c1oc1ccccc12 | 1.1
CCN(CC)c1ccc(N=Cc2c(O)n(-c3ccccc3C)c(=O)[nH]c2=O)cc1 | i
Cc1sc2nc(C3CC3)nc(N3CCN(S(=O)(=O)c4ccc(F)cc4)CC3)c2c1C | 5.6
CSc1ncccc1C(=O)OCc1ccccc1F | i
Brc1ccc(OCc2nc(-c3ccccn3)n[nH]2)cc1 | 0.2
Cc1[nH]nc(-c2ccc(O)cc2O)c1Oc1ccccc1 | 2.3
O=P(C1=C(N2CCOCC2)/C(=C\c2ccccc2)CC1)(N1CCOCC1)N1CCOCC1 | 0.4
CCOC(=O)c1sc(NC(=O)COC(=O)c2ccco2)nc1C | i
O=C(Nc1nnc(CCc2ccccc2)s1)c1cccs1 | 0.3

Filtered by structure: the compounds so far containing a furan ring, fused or not
Structure | H5N1 antiviral
Cc1cc(C2=CC(C)(c3cc(C)oc3C)Nc3nc(C(F)(F)F)nn32)c(C)o1 (stereo not drawn) | 4.0
COC(=O)c1cc2occc2n1CC(=O)N(C)C1CCCCC1 | 1.8
Cc1ccoc1C(=O)Nc1ccc(CC(=O)O)cc1 | i
COc1ccc(C(=O)N(Cc2ccco2)C(C(=O)NC2CCCC2)c2ccc(O)cc2)cc1OC (stereo not drawn) | i
O=C(Nc1ccc(NC(=O)C23CC4CC(CC(C4)C2)C3)cn1)c1ccco1 | 0.7
O=c1[nH]cnc2c1oc1ccccc12 | 1.1
CCOC(=O)c1sc(NC(=O)COC(=O)c2ccco2)nc1C | i

The results go on.
Structure | H5N1 antiviral
O=C(N1CCCCCC1)N1CCN(C(=O)N2CCCCC2)CC1 | i
N#CC1=C(O)C(c2ccccc2)n2c1nc(=O)c1ccccc12 (stereo not drawn) | 0.5
Cc1sc(NC(=O)CCCC(=O)O)c(C#N)c1C | i
N#C/C(=C\c1ccc[nH]1)S(=O)(=O)c1ccccc1 | 0.7
Cc1ccc(C2NC(=S)NC3=C2N2CCC3CC2)cc1 (stereo not drawn) | i
CCOC(=O)c1sc(=S)n(CC)c1NC(=O)C1CC1 | i
O=C(NCc1cccs1)C1CCN(c2nccs2)CC1 | i
O=C(CSCc1ccc(Cl)cc1)NCc1ccc2c(c1)OCO2 | 1.0
Nn1cnnc1SCC(=O)Nc1ccc2c(c1)OCCO2 | i
O=C(CSc1nnc(Cc2cccs2)n1Cc1ccco1)Nc1ccc(Cl)cc1Cl | 0.1
O=C(Cc1ccc(Cl)cc1)NCCN1CCCC1 | i
c1ccc2c(c1)CCN(c1ncnc3nc[nH]c13)C2 | 5.1
CCc1nnc(NC(=O)C2CC(=O)N(c3ccc(C)cc3)C2)s1 (stereo not drawn) | i
O=C(COC(=O)c1cccc(S(=O)(=O)N2CCc3ccccc32)c1)NC1CCS(=O)(=O)C1 (stereo not drawn) | 0.8
COC(=O)c1ccc(Cn2c(C)cc(C)[n+]2C)o1 | 0.3
CCOc1cc(C2C(C(=O)OC)=CN(C3CCCC3)C=C2C(=O)OC)cc(Br)c1O | 0.7
CCOC(=O)N1CCC(NC(=O)C2CCN(C(=O)N3CCOc4ccccc43)CC2)CC1 | i
Cc1c(C(=O)Nc2ccncc2)sc2nc(-c3ccccc3)cn12 | 2.5
CCOC(=O)C1=C(C)OC(N)=C(C#N)C1c1cc2c(cc1Br)OCO2 (stereo not drawn) | i
CCOc1ccccc1N1CC(C(=O)N2CCc3ccccc32)CC1=O (stereo not drawn) | 0.0
Cc1cc(NC(=O)c2noc3c2CCCC3)nn1Cc1ccc(Cl)cc1 | i
NC1=NC2(CCCCC2)N=C(Nc2ccc(F)cc2F)N1 | 0.5
O=C(OCC(=O)N1CCN(C(=O)c2ccco2)CC1)c1ccccc1C(=O)c1ccc(Cl)cc1 | i
COc1ccc(-c2nn3c(-c4ccccn4)nnc3s2)cc1OC | 2.3
COC(=O)[C@H](C)NC(=O)NC1CCN(Cc2ccccc2)CC1 | 0.1
Clc1ccc2[nH]c3c(NCCN4CCOCC4)ncnc3c2c1 | i
Cc1noc(C)c1COc1ccc(C(=O)OCC(=O)c2ccc3c(c2)OCCO3)cc1 | i
CC(NC(=O)CSc1ncnc2nc[nH]c12)c1ccccc1 (stereo not drawn) | 0.6
O=C1CC(C(=O)NCc2ccccc2)C2(CCCC2)O1 (stereo not drawn) | i
Oc1ccccc1CNc1ncc(Br)cc1Br | i
COc1ccc(N=C(N(C)C)P(=O)(N(C)C)N(C)C)cc1 | i
Cc1ccc(CN2C(=O)CCC2C(=O)NCCCN2CCC(C)CC2)cc1 (stereo not drawn) | 1.0
CCOC(=O)Nc1ccc2c(c1)nc(CN1CCOCC1)n2C | i
CCOC(=O)C1SC2(C(F)F)CC1(O)c1c(c(OC)c3occc3c1OC)O2 (stereo not drawn) | 0.9
CC(C)(C)c1ccc(-c2nnc(SCCN3C(=O)c4ccccc4C3=O)o2)cc1 | i
CCOC(=O)CSc1nnc(CNC(=O)Cc2ccccc2)n1-c1ccccc1OC | i
CCOC(=O)Cc1csc(NC(=O)c2ccoc2C)n1 | 0.6
CC1(C)CC(=O)C2=C(C1)N(CCN1CCOCC1)C1=C(C(=O)CC(C)(C)C1)C2c1cccc(Cl)c1 | 0.6
COCC(=O)NCCc1nc(-c2ccccc2)cs1 | 0.4
Cc1ccc(S(=O)(=O)NCC(=O)OCC(=O)N2CCc3ccccc32)cc1 | 0.6
O=c1[nH]c2ccccc2n1CCCSc1cnc2ccccc2n1 | 0.6

Assay outcomes deposited in PubChem BioAssay by SRMLSC.

The list is partial; rates above refer to the full screens.
